Source: PubChem (ICCB-Longwood Screening Facility, Harvard Medical School)
CapD inh: CapD enzyme inhibition | purified CapD enzyme, fluorescence intensity read-out; active compounds read low; some hits fall short of the stated cut | z-score (no concentration beside the values) | hit rate 0.23% among 140,000 | AID 492967;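 active = z-score under -4 in either of two replicates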;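 also: stock transfer was 100 nL into about 40 µL; score is relative to mean and spread of the plate; one replicate is shown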
AID504770: growth inhibitors of E. coli YBA685 in a screen for V. cholerae RctB (chromosome II replication) inhibitors; E. coli YBA685 rctB-dependent plasmid, OD600 growth, 3 h; active compounds read low; z-score (test concentration not listed); hit rate 0.27% among 130,000;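 active = z-score under -2 on both plates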;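 also: wells of about 30 µL received 100 nL stock; score is relative to mean and SD of the test wells; the first replicate is given; strong numbers were not always called active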
* = called active by the depositor; / = no result given; & = joins results of further samples.

structure,CapD inh,AID504770
COC(=O)c1ccc2c(=O)n(CCc3ccc(OC)c(OC)c3)c(SCc3cc(=O)n4ccccc4n3)nc2c1,-0.2,/
O=C1Nc2ccccc2S/C1=C/c1ccc(Cl)cc1,0.77,/
COc1ccc(C2CC(c3ccc(Cl)cc3)=Nc3ccccc3N2C(C)=O)cc1 (stereo not given),-0.46,/
CN1C(=O)CC(c2ccsc2)Sc2ccccc21 (stereo not given),0.27,0
Nc1c(C(=O)Nc2ccc(Cl)cc2)oc2ccccc12,69,1.9
Nc1c(C(=O)Nc2ccc3ccccc3c2)sc2nc3c(cc12)CCCC3,0.98,/
c1csc(-c2ncc3ccccn23)c1,15,-1.4
Cc1ccc(S(=O)(=O)c2c(O)c3ccc(C(=O)N4CCOCC4)cc3[nH]c2=O)cc1,0.84,-0.7
O=C(O)CNC(=O)c1ccc(S(=O)(=O)N2CCCC2)cc1,-0.5,-0.3
CC(=O)n1c(O)c(N=Nc2ccc([N+](=O)[O-])cc2[N+](=O)[O-])c2cc(Br)ccc21,0.15,/
Cc1cc(N2CCN(S(=O)(=O)Cc3ccccc3)CC2)nc2c(C)cccc12,2.6,/
CCN1c2ccccc2-c2nc3ccccc3n2C1c1ccccc1 (stereo not given),2.8,-0.65
CCOC(=O)c1c(Cn2ccnc2C)n(C)c2cc(Br)c(OC(C)=O)cc12,0.74,/
O=C(c1nn2c(c1Cl)NC(c1ccccc1)CC2C(F)(F)F)N1CCN(Cc2ccccc2)CC1 (stereo not given),-0.17,/
CCOc1ccc(C2=NN3C(C2)c2cccc(OC)c2OC3c2ccc(OC)cc2)cc1 (stereo not given),-0.8,/

(next part)
structure,CapD inh,AID504770
COc1ccc(Cc2nnc(SCC3CC3)n2-c2ccc(F)cc2)cc1OC,-1.2,-0.05
COc1ccc(NC(=O)c2cc3nc(C(F)F)cc(C(F)F)n3n2)cc1OC,-0.54,-0.6
CCOC(=O)C1C(=O)N(C(=O)c2ccc(OC)cc2)CC1c1ccccc1 (stereo not given),-0.23,0.3
CC(=O)Nc1sc2c(c1C(c1cccs1)N1CCOCC1)CCCC2 (stereo not given),-0.07,0.8
Cc1ccc(C)c(N2CCN(CCCNC(=O)c3cn[nH]c3C3CCNCC3)CC2)c1,0.59,-0.25
COC(=O)c1ccc(N2N=C(C)/C(=C/c3ccc(-c4cccc(C(=O)O)c4)o3)C2=O)cc1,-0.09,/
COc1ccccc1/C=C1\SC(=S)N(C(Cc2ccccc2)C(=O)O)C1=O (stereo not given),-0.23,/
Cc1ccc2oc(=O)c3cc(C(=O)NCc4ccc(C)o4)sc3c2c1,3.3,-0.3
COC(=O)C1=C(C(=O)OC)SC(=C2C(=S)C(C)(C)N(C(=O)c3ccc(Cl)cc3Cl)c3cc(C)ccc32)S1,-0.015,/
c1ccc(CCNc2nnnn2-c2ccccc2)cc1,/,-0.15
Cc1noc(C)c1CSc1nnc2ccccn12,/,3.1
Cc1nn(C)c(C)c1/C=C/C(=O)Nc1nc2c(s1)CCCC2,/,1.2
CN1c2ccccc2-c2nc3ccccc3n2C1c1ccccn1 (stereo not given),72,-0.35
CN(C)CC1CCc2c(c3ccccc3n2C)C1=O (stereo not given),-0.03,-0.2
O=C1CSC(c2cn(-c3ccccc3)nc2-c2ccccc2)N1Cc1cccnc1 (stereo not given),-0.38,/

Part of the list above in order of formula weight, high to low:
structure,CapD inh,AID504770
O=C1CSC(c2cn(-c3ccccc3)nc2-c2ccccc2)N1Cc1cccnc1 (stereo not given),-0.38,/
COc1ccc(C2CC(c3ccc(Cl)cc3)=Nc3ccccc3N2C(C)=O)cc1 (stereo not given),-0.46,/
Cc1nn(C)c(C)c1/C=C/C(=O)Nc1nc2c(s1)CCCC2,/,1.2

Other records.
structure,CapD inh,AID504770
O=C(Nc1ccc2sc3ccccc3c(=O)c2c1)c1ccc(Cl)c(Cl)c1,-0.82,/
CNC(=S)NCc1ccc2c(c1)cc(C)n2C,0.025,1.2
O=C(NCC1CCCO1)C1CCN(c2nnc(-n3cccc3)s2)CC1 (stereo not given),0.16,0.25
NS(=O)(=O)c1ccc(NC(=O)CN2CCCC2c2ccc3c(c2)OCCO3)cc1 (stereo not given),/,0.15
NC(N)=N/N=C/c1ccccc1,-0.42&-0.015,0.05&-0.15
C#CCOc1ccccc1C(N)=O,/,-0.35
CC1(C)Cc2cccc(OCC(=O)OCc3nnc(-c4ccccc4)o3)c2O1,/,-0.1
COC(=O)C1=C(C)NC2=C(C(=O)CC(c3ccc(OC)cc3)C2)C1c1cc(OC)c(OC)c(OC)c1 (stereo not given),27,/
O=C(NCc1ccncc1)c1ccc(CSc2ncn[nH]2)cc1,/,-0.7
CCc1ccccc1NC(=O)C=C(C)C,-0.17,1.5
O=C(/C=C/c1ccccc1)Nn1cnc2c(cnn2-c2ccccc2)c1=O,/,0.05
CC1(C)CC2CC(C)(CN2C(=O)C23CCC(C)(C(=O)O2)C3(C)C)C1 (stereo not given),0.27,-0.45
Cc1cccc(NS(=O)(=O)c2cccc(C(=O)N3CCN(C)CC3)c2)c1,/,-1.1
O=c1oc2ccccc2cc1-c1csc(Nc2ccccc2)n1,/,-0.15
Cc1ccccc1C(=O)Nc1cccc(-c2cn3ccccc3n2)c1,0.065,-0.85

Next part:
structure,CapD inh,AID504770
O=C1C2C3C=CC(C3)C2C(=O)N1c1ccc(Cc2ccc(N3C(=O)C4C5C=CC(C5)C4C3=O)cc2)cc1 (stereo not given),-0.25,/
C[C@H](NS(=O)(=O)c1ccccc1F)C(=O)OCc1ccccc1F,/,-0.05
Cc1noc(/C=C/N(C)C)c1S(=O)(=O)N(C)CCc1ccc(Cl)cc1,-2.4,0.2
c1cc(-c2nc(-c3ccc4c(c3)OCCCO4)cs2)on1,3.6,-0.55
Cc1ccc(/C=C(\C#N)c2nc(-c3cc4cc(Br)ccc4oc3=O)cs2)cc1,0.45,/
O=C(Nc1ccccc1I)c1cc[n+]([O-])cc1,0.45,0.1
Cc1ccc(SCC(=O)NN)cc1,/,-0.1
O=C(O)CNCC(O)Cn1c2ccccc2c2ccccc21 (stereo not given),/,-0.65
CCc1nc2ccccc2n1CC(=O)N(C(C)CC)C1CCS(=O)(=O)C1 (stereo not given),/,-3.1
O=C1CC(c2ccc(F)cc2)CC2=C1C=Nc1ccccc1N2 (stereo not given),0.1,0.15
O=C(O)c1ccccc1SC1CC(=O)N(c2ccc(N3CCCCC3)cc2)C1=O (stereo not given),/,0
CCOC(=O)CCC(NS(=O)(=O)c1ccc(OC)c(OC)c1)C(=O)OCC (stereo not given),-0.78,/
COC(=O)C1Cc2ccccc2CN1C(=O)CSc1nc(C)cs1 (stereo not given),/,1.1
COc1ccc(CNC(=O)C(C)Sc2nc(N)cc(N)n2)cc1 (stereo not given),/,0.15
O=c1nc(-c2cccs2)cc(C(F)(F)F)[nH]1,16,1

Next structures follow:
structure,CapD inh,AID504770
CCCCCCCCCCn1c(CBr)c(C(=O)OCC)c2cc(OC(C)=O)ccc21,1,/
CN1CCc2c(n(CC(O)Cn3nnc4ccccc43)c3ccccc23)C1=O (stereo not given),1.2,-0.15
c1ccc(-n2c(Sc3ncnc4c3oc3ccccc34)nnc2C2COc3ccccc3O2)cc1 (stereo not given),/,0.2
Cc1noc(C)c1CSc1nc2ccccc2nc1NS(=O)(=O)c1ccc(Cl)cc1,/,-1
CC(=O)OC1N=C(c2ccccc2)c2cc(Br)ccc2NC1=O (stereo not given),-1.2,/
CCN1C(=O)c2ccccc2S(=O)(=O)c2ccc(C(=O)NCC(OC)OC)cc21,0.47,0.05
COc1ccc(OCC(O)CN2CCc3ccccc3C2)cc1 (stereo not given),0.27,-0.1
O=C(Nc1nc2ccc(Cl)cc2s1)c1ccc(Br)s1,0.68,0.7
COc1ccccc1NC(=O)c1cc(Sc2nncn2C)nc2ccccc12,/,0
COc1ccc2cc(-c3nc(-c4cccs4)cs3)c(=O)oc2c1,40,-0.65
CCOc1ccccc1N=Nc1c(C)[nH]n(C(N)=S)c1=O,0.1,0.35
C=CCNC(=O)COc1ccc(-n2cnnn2)cc1,/,-0.45
CC(C)CCNC(=O)CSc1nc(NCc2ccco2)c2ccccc2n1,0.23,/
CCOC(NC(=O)Nc1ccc(Br)cc1)(C(F)(F)F)C(F)(F)F,-0.73,-0.5
O=C(CCCN1C(=O)C(c2ccccc2)Oc2cccnc21)NC1CCN(Cc2ccccc2)CC1 (stereo not given),-0.32,2.1

As a short view, some entries already given:
structure,CapD inh,AID504770
CCCCCCCCCCn1c(CBr)c(C(=O)OCC)c2cc(OC(C)=O)ccc21,1,/
CN1CCc2c(n(CC(O)Cn3nnc4ccccc43)c3ccccc23)C1=O (stereo not given),1.2,-0.15
c1ccc(-n2c(Sc3ncnc4c3oc3ccccc34)nnc2C2COc3ccccc3O2)cc1 (stereo not given),/,0.2
Cc1noc(C)c1CSc1nc2ccccc2nc1NS(=O)(=O)c1ccc(Cl)cc1,/,-1
CC(=O)OC1N=C(c2ccccc2)c2cc(Br)ccc2NC1=O (stereo not given),-1.2,/

The listing continues:
structure,CapD inh,AID504770
CC1CN(C(=O)Cn2cc(C(F)(F)F)cc(Cl)c2=O)CC(C)O1 (stereo not given),/,0.55
Cc1cc(C(=O)OCC(=O)NCc2ccco2)c(C)n1-c1ccc(F)cc1,-0.12,-2.2
Cn1c(=O)c2c(nc3n2CC(c2ccc(Br)cc2)=NN3c2ccccc2)n(C)c1=O,0.33,/
CC(=O)OC(C(=O)Nc1cccc(C)n1)c1ccccc1 (stereo not given),11,-0.2
COC(=O)/C=C1/N/C(=N/c2nc3ccccc3s2)NC1=O,/,-0.65
O=C(OC1=C(c2ccccc2)C(=O)c2ccccc21)c1ccc(Br)cc1,0.065,/
COc1cccc(OC)c1C(=O)NCC#N,-0.12,-0.4
OC(CN1CCCCC1)CN1c2ccccc2Sc2ccccc21 (stereo not given),-0.71,1.2
C=CCN(CC=C)C(=O)C[n+]1cccc(C(N)=O)c1,0.17,0.2
CCOC(=O)C1C(=O)C=C(Nc2ccccc2F)CC1c1ccccc1 (stereo not given),-1.5,-0.95
Nc1nc(N)nc(-c2ccncc2)n1,-0.76,/
CCOc1ccc(CCNS(=O)(=O)c2ccc(NC(C)=O)cc2)cc1,-0.69,/
O=c1c(CO)cc2cccc3c2n1CCC3,10,/
CNc1ccccc1-n1ccc(-c2ccccc2)n1,3.7,-0.3
c1ccc2c(N3CCCCC3)nc(N3CCCCC3)nc2c1,42,2.5

The list continues.
structure,CapD inh,AID504770
O=C(Nc1ccccc1)c1cccn(Cc2c(Cl)cccc2Cl)c1=O,0.14,/
O=C1CCC/C(=N\Nc2ccccc2)C1,-0.8,0
Cc1nn(Cc2ccccc2)c(Cl)c1C(=O)OCc1nnc(-c2ccc(Cl)cc2)o1,/,-0.35
Cc1c2cnn(-c3ccccc3)c(=O)c2c(C)n1CCCC(=O)NCC1CCCO1 (stereo not given),-0.56,1.8
c1ccc2c(c1)CCN(CCCNc1nc3ccccc3n3nnnc13)C2,36,1.4
Cc1ccc(C(=O)N/C(=C\Cl)P(=O)(c2ccccc2)c2ccccc2)cc1,0.3,/
COc1ccc2[nH]c3c(c2c1)CCn1c-3nc2sc3c(c2c1=N)CCCC3,0.35,/
O=C(c1ccccc1)c1cc(Br)ccc1N=Cc1ccccc1O,-0.16,-0.65
O=S(=O)(NC1CCN(Cc2c(F)cccc2Cl)CC1)c1ccc(C(F)(F)F)cc1,-0.56,1.9
Clc1ccc(-c2csc(Nc3ccccc3)n2)cc1,0.04,/
CC(Oc1ccc2ccccc2c1I)C(=O)O (stereo not given),-0.39,-0.75
O=C(NCCOC(=O)C(Cl)(Cl)Cl)C(Cl)(Cl)Cl,0.56,/
OC(CN1CCCCC1)C(F)(F)F (stereo not given),-0.16,-0.75
O=C(CSc1ncccn1)NC(=O)Nc1ccc2c(c1)OCCO2,/,-0.55
N#CC1=C(N=Cc2c(O)ccc3ccccc23)CCC1,0.53,0.95

The list continues:
structure,CapD inh,AID504770
CC(C)(C)OC(=O)N1CCCC1C(=O)NNC(=O)c1ccco1 (stereo not given),-1,/
O=C(CSc1nc2ccccc2c(=O)n1CC1CCC(C(=O)NCCc2ccccc2)CC1)Nc1nccs1 (stereo not given),-0.04,/
Cc1ccc(N2C(=O)C3C4C=CC(C4)C3C2=O)nc1 (stereo not given),0.9,/
CCc1cccc(CC)c1NC(=O)/C(C#N)=C/c1c(C)nn(-c2ccccc2)c1N1CCCC1,/,2.1
COc1ccc(Oc2ncccc2NC(=O)c2ccc(C)cc2)cc1,-0.4,1.2
CCOC(=O)Cc1nnc(SCc2ccc(C#N)cc2)n1Cc1ccco1,/,0.05
c1ccc(CNCC2COc3ccccc3O2)cc1 (stereo not given),/,1.3
Cc1ccc(NC(=O)c2c(-c3ccccc3Cl)noc2C)cc1F,-0.63,/
Cc1cc(NC(=O)c2ccc3c(c2)OCCO3)no1,-0.33,/
NC(=O)c1c(NC(=O)c2cc3cc(Br)ccc3oc2=O)sc2c1CCCC2,0.42,/
O=C1NC(c2ccc(Cl)cc2)Nc2ccccc21 (stereo not given),/,0.35
CC(C)CC1Nc2ccc(C(=O)N3CCCCC3)cc2NC1=O (stereo not given),5.7,-0.9
COc1cccc(Oc2ccccc2C(=O)O)c1,0.45,0.55

In a second layout: 3 of the compounds above
Below each SMILES: CapD inh, AID504770
CN(C)CC1CCc2c(c3ccccc3n2C)C1=O (stereo not given)
    -0.03, -0.2
CCOc1ccc(C2=NN3C(C2)c2cccc(OC)c2OC3c2ccc(OC)cc2)cc1 (stereo not given)
    -0.8, /
O=C(CCCN1C(=O)C(c2ccccc2)Oc2cccnc21)NC1CCN(Cc2ccccc2)CC1 (stereo not given)
    -0.32, 2.1
